CDC25B CDK2 inh – primary biochemical HTRF screen for blockers of M-phase inducer phosphatase 2 binding to CDK2/cyclin A; P30305+P24941; HTRF CDC25B-CDK2/CyclinA binding, anti-His/anti-Flag; stronger effect = higher value; z-score (test concentration not listed); 94,000 tested, 0.72% active; AID 1259370, 2018;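 also: score is relative to mean and SD of negative controls; strong numbers were not always called active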
TAR Tat displ – TAR RNA-Tat peptide displacers, HIV-1, primary screen, biochemical, FRET, FAM/TAMRA-labeled Tat. z-score (concentration not given with the values). 100,000 tested, 0.6% active. HIV-1 TAR RNA, Tat peptide displacement FRET; stronger effect = higher value;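 also: score is relative to mean and SD of negative controls; some compounds called inactive have numbers as strong as hits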
Active calls of the source: *; . = not tested or not shown.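 The calls were made as follows: active = z-score from 3 up in half or more of its runs; inactive = the rest.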

Molecule | CDC25B CDK2 inh | TAR Tat displ
Cc1nc2sc(C(c3ccc(Br)cc3)N3CCN(c4ccccc4)CC3)c(O)n2n1 (stereo not drawn) | -2.3 | .
Cn1c(=O)c2c(ncn2CC(=O)NCc2ccc3c(c2)OCO3)n(C)c1=O | -0.26 | 0.71
c1ccc(OCCSc2nnc(-c3ccc4c(c3)OCO4)o2)cc1 | -3.3 | 0.63
COC(=O)c1c(C)cc(C)c2c1CC(C)(C)C2=O | -1.6 | .
Cc1cccc(-c2nc(Cn3c(=O)cc(-c4ccccc4)c4c(C)nn(C)c43)c(C)o2)c1 | . | -0.29
O=C(O)CC12CSc3[nH]c(=O)sc3C1c1ccccc1OC2=O (stereo not drawn) | -0.61 | .
Cc1cc2c(c(C)c1Cl)CN(Cc1ccc3c(c1)OCO3)CO2 | -0.15 | .
OCc1nc2ccccc2n1Cc1cccc(Br)c1 | 0.2 | 0.7
Cc1oc2ncnc(N3CCCCC3)c2c1C(=O)N1CCN(c2ccccn2)CC1 | . | 0.13
COc1ccc(/C=N/O)cc1OC1CCCC1 | -1.5 | .

New compounds follow
Molecule | CDC25B CDK2 inh | TAR Tat displ
O=S(=O)(NCC(c1ccccc1)N1CCOCC1)c1ccc(Cl)cc1 (stereo not drawn) | -1.2 | 0.27
CCCSc1nnc(NC(=O)c2cc3ccccc3c(=O)s2)s1 | -2.7 | 0.74
O=C(OCCN=C1NS(=O)(=O)c2ccccc21)c1cccs1 | 0.54 | 0.76
CC1(C)C=C(N2CCN(C3=CC(C)(C)NC(C)(C)C3)CC2)CC(C)(C)N1 | -2.3 | .
Cn1c(=O)[nH]c2cc(-c3noc(CNS(=O)(=O)c4ccccc4)n3)ccc21 | . | -0.19
COc1ccc(-c2nnc(-c3ccc(C)cc3)o2)cc1OC | -0.1 | 1.9
c1nc2nc3c(c(NCc4ccc5c(c4)OCO5)n2n1)CCCC3 | . | 0.61
CCn1c(=O)c(N2CCN(S(=O)(=O)c3cccc(Cl)c3)CC2)nc2ccccc21 | -0.75 | 0.61
Cc1ccc(/C=C2\CCCC(CN(C)C)C2=O)cc1 (stereo not drawn) | -1.4 | .
CCOC(=O)c1ccc(OCC#Cc2ccc(C(F)(F)F)cn2)cc1 | -2.1 | .

(cont.)
Molecule | CDC25B CDK2 inh | TAR Tat displ
CCOc1ccc(C2Nc3cc(C)c(C)cc3NC3=C2C(=O)CC(C)(C)C3)cc1 (stereo not drawn) | -0.43 | 0.35
O=C(CSc1nc2c(oc3ccccc32)c(=O)n1Cc1ccco1)Nc1ccccc1Cl | -2.1 | 2.2
CCOC(C#CCN(CC)CC)(c1ccccc1)c1ccccc1 | -1.1 | 1.1
O=C1CC(c2ccccc2Cl)c2cc3c(cc2N1)OCO3 (stereo not drawn) | -1 | 1.2
COc1ccc(CCNc2ncnc3c2cnn3C)cc1 | . | 1.6
C#CCSc1nc2c(c(=O)[nH]1)C(c1cc(F)ccc1F)CC(=O)N2 (stereo not drawn) | -1.2 | -0.4
Clc1ccc(-n2ncc3c(NCCCN4CCOCC4)ncnc32)cc1 | . | -0.96
CSc1ccc(NC(=O)Nc2c(C)n(C)n(-c3ccccc3)c2=O)cc1 | -1.4 | -0.13
CC(=O)N1CCc2c(sc3c2c(=O)n(-c2ccc(Br)cc2F)c(=O)n3C)C1 | -0.74 | 1.4
CCOC(=O)N1CCC(Nc2c(NCCC3=CCCCC3)c(=O)c2=O)CC1 | -0.53 | 0.96

(listing goes on)
Molecule | CDC25B CDK2 inh | TAR Tat displ
COc1ccc(C2=C(C)C(N3CCN(c4ccc(OC)cc4)CC3)=NS2(=O)=O)cc1 | 0.88 | 1
C=Cc1ccc(COc2cc3c(C(=O)OCCOC)c(C)oc3cc2Br)cc1 | -0.19 | -1.5
Cc1ccc(-c2ccc(=O)n(C(C)C(=O)N3CCc4ccccc43)n2)cc1 (stereo not drawn) | 1.5 | 1.3
O=C(O)CCCN1CCS(=O)CC1 | -1.8 | -0.62
CCCCCC(=O)c1cc(C)c(C)cc1NC(C)=O | -1.4 | .
CCCCCn1cc2c(c1-c1ccc(Br)cc1)c(=O)n(C)c(=O)n2C | 1.3 | 2.1
O=C(Nc1ccccc1)Nc1cccc(NC(=O)Nc2ccccc2)c1F | -1.5 | .
CCCCCOC(=O)C1=C(C)Nc2ncnn2C1c1cccc(F)c1 (stereo not drawn) | -1.1 | -0.83
Cc1ccc(C2c3c(-c4ccccc4)n[nH]c(=O)c3Nc3nnnn32)cc1 (stereo not drawn) | 1.6 | 0.22
COCCNC(=O)c1sc2nc3n(c(=O)c2c1C)CCC3 | . | 1.3

One compound at a time (already shown):
Cc1ccc(C2c3c(-c4ccccc4)n[nH]c(=O)c3Nc3nnnn32)cc1 (stereo not drawn) reads CDC25B CDK2 inh = 1.6; TAR Tat displ = 0.22
CCCCCn1cc2c(c1-c1ccc(Br)cc1)c(=O)n(C)c(=O)n2C reads CDC25B CDK2 inh = 1.3; TAR Tat displ = 2.1

New compounds follow:
Molecule | CDC25B CDK2 inh | TAR Tat displ
Clc1cccc(-c2nnc(CN3CCN(c4cccc(Cl)c4)CC3)o2)c1 | -1.2 | -0.14
Cc1sc2ncn(CC(=O)N3CC(C)CC(C)C3)c(=O)c2c1C (stereo not drawn) | . | 1.2
CO[C@H]1C=CO[C@@]2(C)Oc3c(C)c(O)c4c(O)c(c5c(c4c3C2=O)NC2(CCN(CC(C)C)CC2)N=5)=NC(=O)C(C)=CC=C[C@H](C)[C@H](O)[C@@H](C)[C@@H](O)[C@@H](C)[C@H](OC(C)=O)[C@@H]1C | . | -9
CCN(CC)CCCNC(=O)c1c(O)nc2cc(C)ccn2c1=O | 0 | -0.33
Cc1cc(NC(=O)CSc2ncnc3c2oc2ccccc23)no1 | -5.8 | .
CN(CC(=O)NCc1cccs1)c1nnc(N2CCCCC2=O)s1 | . | 1.2
COC(=O)c1c(NC(=O)CSc2cc(C)nc(C)n2)sc2c1CCC(C)C2 (stereo not drawn) | -1.1 | 1.9
CC(C)CCN(Cc1ccco1)C(=O)c1cc2c(s1)-c1ccccc1OC2 | 0.12 | 0.26
CCCN1CC23C=CC(O2)C(C(=O)O)C3C1=O (stereo not drawn) | -1.1 | -1.4
COc1cc(C2C(C#N)=C(C)NC3=C2C(=O)CCC3)ccc1OC(C)=O (stereo not drawn) | -2.1 | 0.53

(next part)
Molecule | CDC25B CDK2 inh | TAR Tat displ
Cc1ccc(N(C(=O)C2CCCO2)C2C=CS(=O)(=O)C2)cc1Cl (stereo not drawn) | -2.1 | .
CSc1cccc(NS(=O)(=O)c2ccc3c(c2)CCCC(=O)N3)c1 | . | -0.38
CCOC(=O)c1c(NC(=O)Nc2cccc(Cl)c2)sc(C)c1C | -1 | 1.5
O=C(c1ccc(S(=O)(=O)Nc2cccc3c2CCCC3)s1)N1CCCC1 | . | 0.88
COC(=O)c1c(C)oc2cc(Br)c(OC(=O)c3ccco3)cc12 | -0.71 | .
Cn1nc(C(=O)NCc2ccco2)c2c1-c1ccccc1S(=O)(=O)C2 | -1.4 | -1.4
OC(COc1ccc2oc3c(c2c1)CCCC3)CN1CCN(c2ccccc2)CC1 (stereo not drawn) | -0.13 | 2.1
CC(C)CC(C(=O)N1CCN(c2ccccc2F)CC1)N1Cc2ccccc2C1=O (stereo not drawn) | . | 0.52
Nc1nc(-c2ccc3c(c2)Cc2ccccc2-3)cs1 | -0.64 | .
Cn1c(C(=O)NCCN2CCCC2)c(N2CCCC2=O)c2cc(F)ccc21 | . | -0.44

In the list so far, these have fluorine.
Molecule | CDC25B CDK2 inh | TAR Tat displ
CCOC(=O)c1ccc(OCC#Cc2ccc(C(F)(F)F)cn2)cc1 | -2.1 | .
C#CCSc1nc2c(c(=O)[nH]1)C(c1cc(F)ccc1F)CC(=O)N2 (stereo not drawn) | -1.2 | -0.4
CC(=O)N1CCc2c(sc3c2c(=O)n(-c2ccc(Br)cc2F)c(=O)n3C)C1 | -0.74 | 1.4
O=C(Nc1ccccc1)Nc1cccc(NC(=O)Nc2ccccc2)c1F | -1.5 | .
CCCCCOC(=O)C1=C(C)Nc2ncnn2C1c1cccc(F)c1 (stereo not drawn) | -1.1 | -0.83
CC(C)CC(C(=O)N1CCN(c2ccccc2F)CC1)N1Cc2ccccc2C1=O (stereo not drawn) | . | 0.52
Cn1c(C(=O)NCCN2CCCC2)c(N2CCCC2=O)c2cc(F)ccc21 | . | -0.44

(listing goes on)
Molecule | CDC25B CDK2 inh | TAR Tat displ
CC(=O)N1c2ccc(S(=O)(=O)NCC3CCCO3)cc2CC1C (stereo not drawn) | . | -1.4
CCOC(=O)c1cc(C(C)=O)on1 | -1.9 | .
Cn1nccc1NC(=O)C1CCCCC1 | -0.92 | .
Cc1[nH]nc2oc(=O)c(CCO)c(C)c12 | -2.2 | .
COc1ccc(Nc2cc(Nc3cc(Cl)ccc3OC)ncn2)cc1 | -0.56 | -1.5
Cc1nnc(N2C(=O)c3oc4ccccc4c(=O)c3C2c2cccc(OCCC(C)C)c2)s1 (stereo not drawn) | 0.09 | 15
Cc1cc2[nH]c(=O)c(=O)[nH]c2cc1S(=O)(=O)N1CCN(C2CCCCC2)CC1 | . | 1
CCn1c(=O)oc2cc(NS(=O)(=O)c3cc4[nH]c(=O)c(=O)[nH]c4cc3C)ccc21 | . | 0.66
Cc1nc2sc(C(c3cccs3)N3CCN(C)CC3)c(O)n2n1 (stereo not drawn) | -1.3 | .
COC(=O)C1=C(C)NC2=C(C(=O)CC(c3cccs3)C2)C1c1ccc(Cl)cc1 (stereo not drawn) | . | 1.3

Following part.
SMILES	CDC25B CDK2 inh	TAR Tat displ
CC1=C(c2ccc(C(C)C)cc2)S(=O)(=O)N(Cc2ccc(C(=O)O)cc2)C1=O	-5	-0.43
Cc1ccc(-c2csc(N)n2)cc1	-1.2	.
COC(=O)CN1C(=O)CSc2ccc(S(=O)(=O)N3CCCCC3)cc21	.	-0.28
O=C(c1cccnc1)N(c1cc2sc(=O)oc2c2ccccc12)S(=O)(=O)c1ccc(F)cc1	.	-1.4
CCN(c1ccccc1)S(=O)(=O)c1cc2c3c(c1)C(C)C(=O)N3CCC2 (stereo not drawn)	.	1.3
COc1ccc(OC)c(N2C(=O)c3cccnc3C2Nc2ccc3c(c2)OCCO3)c1 (stereo not drawn)	.	0.08
C=CCOC(=O)c1sc(N2C(=O)c3oc4ccccc4c(=O)c3C2c2cccc(Cl)c2)nc1C (stereo not drawn)	-0.02	0.99
N#C/C(=N\OC(=O)c1ccc(Cl)cc1)S(=O)(=O)c1ccc(Cl)cc1	1.5	.
Cc1cc(C)c2c(c1)c(C)cc1nnc(SCC(=O)Nc3nc(C)c(C(=O)N(C)C)s3)n12	-0.11	-0.53
CCOc1ccc(NC(=O)C2=Cc3sc4c(c3CS2)CCC(C)C4)cc1 (stereo not drawn)	.	0.32
CCc1ccc(Nc2ncnc3c2nc2n3CCCCC2)cc1	.	0.45
CCOC(=O)C1=C(C)NC2=C(C(=O)CCC2)C1c1cccc(Br)c1 (stereo not drawn)	-1.1	2.4
COC(=O)c1cc2ccsc2n1Cc1nc(-c2ccc(C)cc2)oc1C	-2.1	0.43
O=C1CC(c2nc3ccccc3[nH]2)CN1CC1CC1 (stereo not drawn)	-1.1	0.8
O=C(NCCCN1CCCC1)C1CCC(CNc2nc(=S)[nH]c3ccccc23)CC1 (stereo not drawn)	0.19	.
O=C(O)CN1CCCN(Cc2ccc(F)cc2Cl)C1=O	-3	1.2
COc1ccccc1C1=NS(=O)(=O)c2cc(S(=O)(=O)N3CCCCC3)ccc2N1	.	-0.58
CN1C(=O)C(C)(C)c2cc(S(=O)(=O)NCCCc3ccco3)ccc21	.	0.8
CC(=O)Nc1ccc(-n2cccc(C(=O)NC3CCCC3)c2=O)cc1	.	2.1
Cc1c2c(nc3c(C(=O)NC4CC4)cnn13)CCCC2	-2.5	.
CC1CCc2c(sc3nnn(CC(=O)Nc4ccc(Br)cc4)c(=O)c23)C1 (stereo not drawn)	0.76	2.6
CC(=O)Nc1ccc(S(=O)(=O)NC2CC3CCC(C2)N3C)cc1 (stereo not drawn)	-2.6	.
COC(=O)c1ccc2c(=O)n(C3CCCC3)c(=S)[nH]c2c1	-0.91	.
Cc1ccc(S(=O)(=O)Nc2cccc(-c3cn4ccsc4n3)c2)cc1	-0.02	.
COc1nc2ccccc2cc1-c1noc(-c2ccc(Cl)cc2)n1	-2.1	-0.11
CN1C=CC=C/C1=C1\N=C(c2ccccc2)OC1=O	-3.5	.
CCCOc1ccc(CSc2n[nH]c(C)n2)cc1	-1.3	0.56
CN1CCN(c2nnc(-n3cccc3CN3CCN(c4ccc(F)cc4)CC3)s2)CC1	.	2.4
N#CC(C#N)=Cc1cccn1-c1ccc(C(F)(F)F)cc1	0.84	.
COc1cc(Nc2nc3ccccc3nc2-n2nc(C)cc2C)cc(OC)c1	-1.6	0.28

More structures:
SMILES	CDC25B CDK2 inh	TAR Tat displ
O=C(O)/C=C\C(=O)Nc1ccccc1Sc1nccc(C(F)(F)F)n1	-1.6	.
COc1cc(CO)c(C2(C(=O)O)CCCC2)cc1OC	-1.3	0.66
O=c1cc(-c2ccccc2)sc2ccc(Cl)cc12	-0.38	.
CC1=C(c2ccc(C(C)C)cc2)S(=O)(=O)N=C1N1CCN(c2ccccn2)CC1	0.69	-1.3
CS(=O)(=O)Nc1nc2ccc(NC(=O)CSc3ccccc3)cc2s1	.	-1.3
O=C(Nc1ccccc1)OC(Cc1ccccc1)C(F)(F)F (stereo not drawn)	-0.26	.
Cn1c(=O)oc2cc(NS(=O)(=O)c3ccc(Cl)cc3)ccc21	.	-0.63
CCOc1ccccc1NC(=O)NC(C)c1c(-n2cccc2)sc(C)c1C (stereo not drawn)	-4.1	0.03
CC(C)Oc1ccc(C2CC(=O)Nc3nc(SCc4ccccc4)[nH]c(=O)c32)cc1 (stereo not drawn)	0.43	-0.34
COc1ccc(C2C(C#N)=C3N=C(N)c4ccccc4N3C3=C2C(=O)CC(C)(C)C3)cc1 (stereo not drawn)	-0.94	-5.8
Cc1nnc(NC(=O)CN2C(=O)c3ccccc3S2(=O)=O)s1	-1.9	.
CC(C)(CCO)Nc1ncnc2onc(-c3ccc(F)cc3)c12	.	0

Assay outcomes from PubChem.
